Assay outcomes from PubChem BioAssay.
MT1-MMP act inh: blockers of MT1-MMP proenzyme processing, primary screen, HT1080 RFP-PRO-GFP cells, GFP/RFP fluorescence; GFP/RFP ratio fluorescence, overnight; percent of plate control window, DMSO zero; 360,000 compounds, 0.061% hits; GFP/RFP ratio change, % at 20 µM;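 active = GFP/RFP ratio change of at least 30% with cell ATP level not reduced by more than half and red fluorescence within 50% of control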; note: strong numbers were not always called active
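Test system: HT1080 cells expressing an RFP-PRO-GFP fluorescent reporter construct / Compound dosing: single-point 20 µM compound, 1% DMSO / Schedule: cells overnight before dosing, compound overnight, 37 °C, 5% CO2 / Evaluation: GFP/RFP fluorescence ratio / Control set: DMSO and RFP-L50D-GFP cell wells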
eIF4H inh: human eIF4H binding inhibitors, primary screen, translation initiation inhibitor project, biochemical, uHTS, fluorescence polarization; Eukaryotic translation initiation factor 4H (Homo sapiens), Q15056; eIF4H fluorescence polarization binding assay; inhibition, % at 35 µM; 290,000 compounds, 0.94% hits; AID 2012, 2009;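 active = 50% or more with normal probe brightness, or confirmed in later tests; inconclusive = above 50% with abnormal brightness, or retests that disagree; inactive = below 50% or failed in later tests; about a fifth of its hits are not listed in these tables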;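 note: calls also rest on retests at 20 µM and on dose response follow-up; 0% = protein and probe with vehicle and 100% = probe without protein; strong numbers were not always called active; many hits fall short of the cut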
Rce1 inh: yeast Rce1p protease inhibitors, primary screen, biochemical, fluorescence, cell-free homogeneous. CAAX prenyl protease 2 (Saccharomyces cerevisiae (strain ATCC 204508 / S288c)), Q03530. calls only. 290,000 compounds, 0.27% hits. yeast membranes, quenched prenylated peptide cleavage fluorescence;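 active = fall in fluorescence gain of 50% or more versus controls, with final raw signal at or below 3038400; inconclusive = same 50% fall but final raw signal above 3038400; inactive = fall in fluorescence gain under 50%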;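 note: plate controls were neutral control wells for no effect and wells lacking membranes for full effect; tested at 10 µM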
Target sequence (Q03530 whole entry, looked up): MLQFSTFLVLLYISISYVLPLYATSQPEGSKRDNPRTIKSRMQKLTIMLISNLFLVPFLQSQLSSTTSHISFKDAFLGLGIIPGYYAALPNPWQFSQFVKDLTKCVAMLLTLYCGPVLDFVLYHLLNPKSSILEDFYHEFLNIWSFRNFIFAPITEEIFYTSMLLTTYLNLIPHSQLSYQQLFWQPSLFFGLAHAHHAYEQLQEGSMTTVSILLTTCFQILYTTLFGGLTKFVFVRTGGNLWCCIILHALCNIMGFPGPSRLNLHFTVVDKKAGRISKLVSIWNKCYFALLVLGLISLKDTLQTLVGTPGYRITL
UUG fidelity: modulators of yeast start codon fidelity, primary screen, whole organism, S. cerevisiae, single point, plate reader; S. cerevisiae UUG-firefly luciferase reporter, luminescence/redox ratio; activity score, % at 18.7 µM; 350,000 compounds, 0.13% hits; AID 602363, 2012;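 active = replicate mean at a twofold rise or more, about +100% in these data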;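 note: firefly luciferase made from a UUG start codon reports start codon fidelity; reporter light over untreated wells divided by growth signal over untreated wells; some hits fall short of that in this replicate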
PABP FP inh: PABP poly(A) RNA binding inhibitors, primary screen, biochemical, fluorescence polarization, uHTS | 290,000 compounds, 1% hits | AID 2014, 2009 | inhibition, % at 35 µM | Polyadenylate-binding protein 1 (Homo sapiens), P11940;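 active = 50% or more with normal probe brightness, or confirmed in later tests; inconclusive = above 50% with abnormal brightness, or retests that disagree; inactive = below 50% or failed in later tests; about a fifth of its hits are not listed in these tables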;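 note: calls also rest on retests at 20 µM and on dose response follow-up; controls were probe without protein and protein plus probe with vehicle; some compounds called inactive have numbers as strong as hits; many hits fall short of the cut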
Target sequence (P11940 whole entry, looked up): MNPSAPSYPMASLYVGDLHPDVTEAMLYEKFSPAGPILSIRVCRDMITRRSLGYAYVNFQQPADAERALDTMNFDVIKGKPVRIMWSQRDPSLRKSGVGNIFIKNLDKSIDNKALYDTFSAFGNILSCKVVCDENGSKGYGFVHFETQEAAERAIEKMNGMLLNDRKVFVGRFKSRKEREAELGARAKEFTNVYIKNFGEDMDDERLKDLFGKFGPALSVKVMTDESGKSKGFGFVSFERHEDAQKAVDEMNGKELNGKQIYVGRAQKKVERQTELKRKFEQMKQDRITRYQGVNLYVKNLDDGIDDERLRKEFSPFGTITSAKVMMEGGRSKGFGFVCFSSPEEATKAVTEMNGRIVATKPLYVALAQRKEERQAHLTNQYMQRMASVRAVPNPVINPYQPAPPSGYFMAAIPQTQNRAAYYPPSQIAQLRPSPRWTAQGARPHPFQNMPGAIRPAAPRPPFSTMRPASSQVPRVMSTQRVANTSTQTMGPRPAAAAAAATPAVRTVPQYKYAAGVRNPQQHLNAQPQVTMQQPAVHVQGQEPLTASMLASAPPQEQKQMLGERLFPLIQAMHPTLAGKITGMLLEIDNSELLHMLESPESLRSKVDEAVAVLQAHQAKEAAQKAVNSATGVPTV
Env fusion inh: inhibitors of HIV-1 Env-driven cell-cell fusion, primary screen, HeLa-JRFL effector, CEM21 target cells, luciferase; inhibition, % at 12.3 µM; 360,000 compounds, 1.1% hits; AID 651610, 2012;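 active = mean replicate inhibition score of at least 50 and every replicate individually at or above 50; inconclusive = only one of the two criteria met; inactive = mean below 50 and not all replicates reaching 50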;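 note: 0% = plate neutral controls and 100% = maraviroc near 300 nM; one replicate is shown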
CSC inhib: cancer stem cell viability inhibitors, primary screen, luminescence; cancer stem cell-like cells viability; inhibition, % at 7.5 µM; 300,000 compounds, 1.1% hits; AID 2717, 2010;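 active = mean at 75% or more and at least half the replicates too; inconclusive = mean and replicates disagree; tested in HMLE shEcad cells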;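 note: 0% = median of negative and 100% = median of positive control wells; the first replicate is given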
eIF4H inh retest: further read-out of eIF4H inh, marked with its call; inhibition, %; compound at 20 µM; confirmation average;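 mean of two retest wells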
PABP FP inh retest: further read-out of PABP FP inh, marked with its call; inhibition, %; compound at 20 µM; confirmation repeats;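 mean of two retest wells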
MT1-MMP act inh RFP: recorded beside MT1-MMP act inh, whose call it bears; RFP signal change, %; measured here: RFP expression control read;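 0 = vehicle wells; hits needed this value within 50% of zero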
* hit, by the source's call; i = inactive; ? = inconclusive; . = no result given. Rows are unselected. Share with any hit: about 2.9%.

A first look (eleven entries):
SMILES	MT1-MMP act inh	MT1-MMP act inh RFP	eIF4H inh	Rce1 inh	UUG fidelity	PABP FP inh	Env fusion inh	CSC inhib	others
COc1cc(CNc2ccc(C)c(C)c2)cc(OC)c1OC	-8	-11	-1	i	-11	14	.	68
Cc1csc(SCC(=O)NC(C)c2ccccc2)n1 (configuration not stated)	3	4	0	i	.	3	2	11
CCO[C@@H]1OC(C(=O)N2CCN(Cc3ccccc3)CC2)=C[C@H](c2ccc(Br)cc2)[C@H]1CCCO	0	-7	4	i	-6	1	9	3
NS(=O)(=O)c1ccc(N=Nc2c(=O)[nH]n3c(=O)c4c([nH]c23)CCCC4)cc1	5	-2	4	i	-15	18	5	-4
C=CCNC(=S)Nc1sc2c(c1C#N)CCCC2	1	6	-3	i	-12	-22	6	-12
Nc1c(N(Cc2ccccc2)C(=O)COc2ccc(F)cc2Cl)c(=O)[nH]c(=O)n1Cc1ccccc1	0	-8	.	.	-6	.	1	-6
O=C(N/N=C/c1ccc([N+](=O)[O-])cc1)c1cc(-c2ccc3c(c2)OCO3)n[nH]1	4	1	-8	i	.	-10	-3	-11
CC1=NN(Cc2c(C)nn(Cc3ccccc3)c2C)C(C)(C)C1	4	3	-13	i	-16	15	0	-5
C=CCn1cccc(C(=O)Nc2ccc(C)cc2)c1=O	1	-5	11	i	-5	8	-65	14
O=C(/C=C/Nc1ccc([N+](=O)[O-])cc1)c1ccc(Br)cc1	-2	4	5	i	-20	12	-4	29
Cc1ccc(NC(=O)c2ccc(OCC3CCCO3)cc2)cc1 (configuration not stated)	0	-8	-13	i	8	-2	-38	1

The listing, previewed entries included:
SMILES	MT1-MMP act inh	MT1-MMP act inh RFP	eIF4H inh	Rce1 inh	UUG fidelity	PABP FP inh	Env fusion inh	CSC inhib	others
COc1cc(CNc2ccc(C)c(C)c2)cc(OC)c1OC	-8	-11	-1	i	-11	14	.	68
Cc1csc(SCC(=O)NC(C)c2ccccc2)n1 (configuration not stated)	3	4	0	i	.	3	2	11
CCO[C@@H]1OC(C(=O)N2CCN(Cc3ccccc3)CC2)=C[C@H](c2ccc(Br)cc2)[C@H]1CCCO	0	-7	4	i	-6	1	9	3
NS(=O)(=O)c1ccc(N=Nc2c(=O)[nH]n3c(=O)c4c([nH]c23)CCCC4)cc1	5	-2	4	i	-15	18	5	-4
C=CCNC(=S)Nc1sc2c(c1C#N)CCCC2	1	6	-3	i	-12	-22	6	-12
Nc1c(N(Cc2ccccc2)C(=O)COc2ccc(F)cc2Cl)c(=O)[nH]c(=O)n1Cc1ccccc1	0	-8	.	.	-6	.	1	-6
O=C(N/N=C/c1ccc([N+](=O)[O-])cc1)c1cc(-c2ccc3c(c2)OCO3)n[nH]1	4	1	-8	i	.	-10	-3	-11
CC1=NN(Cc2c(C)nn(Cc3ccccc3)c2C)C(C)(C)C1	4	3	-13	i	-16	15	0	-5
C=CCn1cccc(C(=O)Nc2ccc(C)cc2)c1=O	1	-5	11	i	-5	8	-65	14
O=C(/C=C/Nc1ccc([N+](=O)[O-])cc1)c1ccc(Br)cc1	-2	4	5	i	-20	12	-4	29
Cc1ccc(NC(=O)c2ccc(OCC3CCCO3)cc2)cc1 (configuration not stated)	0	-8	-13	i	8	-2	-38	1
CC(C)C(N)c1csc(Nc2ccc(S(C)(=O)=O)cc2)n1 (configuration not stated)	-2	3	.	.	-12	.	-8	.
COc1ccc(-c2nnc(SCC(=O)N(Cc3ccccc3)C(C)(C)C)o2)cc1OC	-7	-20	-3	i	1	-14	55	23
COc1ccc(S(=O)(=O)N2CCC(C(=O)NCc3cccs3)CC2)cc1	-5	-6	-10	i	-5	7	-6	-8
COc1cc(CN2CCC(C(=O)N3CCCC(C)C3)CC2)cc(OC)c1O (configuration not stated)	-2	-2	-7	i	.	4	.	5
O=C1C2CCCCN2C(=O)N1CCCN1CCN(c2cccc(C(F)(F)F)c2)CC1 (configuration not stated)	4	-3	.	.	0	.	0	.
Cc1nc(N)sc1C(=O)N1N=N1	0	6	3	i	-25	1	-6	32
CN(C)C(=O)CSc1nnc(CCN)o1	-1	2	4	i	.	2	-16	-14
COc1cccc(CNC(=O)C2CCC(=O)N(CCc3cccc(F)c3)C2)c1 (configuration not stated)	1	3	-10	i	0	-4	.	-6
CCc1ccc(-c2cc3c(=O)n(CC(=O)N4CCCC4)nc(C)n3n2)cc1	-1	-2	-8	i	-16	4	7	-8
CCCCCCCNC(=O)COc1ccc2c(c1)C(=O)CC(C)(C)O2	10	10	6	i	13	0	-15	.
Cc1onc(-c2ccccc2Cl)c1C(=O)NC(=S)NCC(=O)c1ccccc1	7	5	-6	.	.	-2	1	-3
COc1ccccc1CC(=O)NCC(c1ccco1)N1CCCCC1 (configuration not stated)	-1	2	7	i	.	-2	-3	10
O=C(Nc1ccc(F)c(Cl)c1)Nc1cnccn1	-1	-2	8	i	.	7	-16	4
Cc1cccc(C)c1NC(=O)COC(=O)c1c2c(nc3ccccc13)/C(=C\c1ccc3c(c1)OCO3)CCC2	-252	-9	?	.	.	-4	.	35
CCOc1cc(N2CCOCC2)c(OCC)cc1NC(=O)c1cnccn1	-4	7	.	.	8	.	.	-19
CCOC(=O)Cc1csc(NC(=O)CSc2nnc3ccccn23)n1	-6	-1	-13	i	.	78	4	-4	eIF4H inh retest=9;PABP FP inh retest=17
Cc1ccc(C)c(NC(=O)CSc2nc3c(oc4ccccc43)c(=O)n2-c2ccccc2)c1	-4	-7	-6	i	2	-1	-74	-2
COc1ccccc1NS(=O)(=O)c1ccc(C)c(NC(=O)NCCCl)c1	5	9	-11	i	-10	1	-5	1
COc1ccc(CNC(=O)CN2CCC(NC(=O)c3cccc(OC)c3)CC2)cc1	2	3	.	.	-6	.	-1	.
COc1cccc2c1-c1c(C(=O)O)cccc1C2=O	2	3	2	i	-6	12	6	7
Cc1c(NC(=O)Nc2ccccc2Cl)sc(=S)n1C	-3	2	3	i	5	4	-31	6
COc1ccccc1CN(C)C(=O)c1cc(-c2cccs2)nc2ccccc12	3	0	11	i	-11	8	23	59
O=C(CN1CCN(S(=O)(=O)c2ccc(Br)cc2)CC1)Nc1ccc2c(c1)OCCO2	-1	-1	8	i	-7	-2	.	-14
Cc1ccc(-n2nc3ccc(NC(=O)c4ccco4)cc3n2)cc1	-3	1	11	i	-9	-4	.	-13
COc1ccc(-n2c(=O)c3c(C)c(C)sc3n(Cc3cccc(F)c3)c2=O)c(OC)c1	-5	-6	-2	i	.	12	14	-5
COCCN1C(=O)CCC1(C)C(=O)NC(C)(C)C (configuration not stated)	-5	2	.	.	0	.	2	.
CCC(Cc1ccccc1)NC(=O)Cn1ncc2ccsc2c1=O (configuration not stated)	4	0	2	i	-11	-6	-9	-14
CC1(C)Cc2c(sc(/N=C/N3CCOCC3)c2C#N)C(C)(C)N1	0	3	-5	i	-22	-1	.	-10
COc1cc(/C=N/NC(=O)COc2ccc(Cl)cc2)ccc1OS(=O)(=O)c1ccc(C)cc1	-2	-8	-14	i	7	-3	27	.
O=C(c1ccco1)N1CCN(C(c2ccccc2Cl)c2nnnn2CC2CCCO2)CC1 (configuration not stated)	-6	-5	6	i	-10	-4	.	19
Cn1nc(-c2ccccc2)c2cc(C(=O)O)sc21	-5	-2	-2	i	-24	-17	8	-10
COc1ccccc1CNC(=S)NC1CCCC1	6	7	-7	i	-24	-5	-1	0
O=C(CSc1n[nH]c(-c2ccccc2F)n1)NCC(=O)Nc1ccc(F)c(F)c1F	3	0	-3	i	.	-8	21	-2
Cc1ccc(-n2c(SCC(=O)N/N=C/c3c(C)nn(-c4ccccc4)c3C)nc3ccccc3c2=O)cc1	-5	-6	-4	i	.	-11	10	?
O=C(/C=C/c1ccccc1)Nc1cccc(C(=O)N2CCCCC2)c1	1	-6	.	.	4	.	3	.
COc1ccccc1NC(=O)Nc1cccc(C(=O)O)c1	1	4	5	i	.	-3	-6	-11
CN(C)CCCNC(=O)CC1C[C@H](C(=O)N2CCCCC2)[C@@]2(CCc3ccccc3)c3[nH]c4ccccc4c3CCN2C1=O (some centres not stated)	-4	-3	.	.	-1	.	-35	5
CCCn1ncc([C@@H]2C[C@H]3CN(Cc4cccc(Cl)c4)C(=O)[C@]34CCCN24)c1C	-26	2	-10	i	.	-8	26	0
O=C(CN(Cc1ccc(F)cc1)C(=O)CNS(=O)(=O)c1ccccc1)NCc1ccco1	0	-1	-17	i	-7	-6	-12	-3
O=C(O)c1ccc(CS(=O)(=O)c2cccc(C(F)(F)F)c2)o1	1	2	1	i	-14	-3	-53	-6
CCN1C(=O)c2cccc3c(S(=O)(=O)NCc4cccnc4)ccc1c23	0	2	-2	i	-17	-6	.	3
O=C1c2ccccc2C(=O)N1CCc1nc2ccccc2c(=O)n1-c1ccccn1	0	1	1	i	-4	-1	.	7
COCCNC(=O)C1(C)CCCN(Cc2cc3ccccc3o2)C1 (configuration not stated)	-2	5	.	.	-9	.	-6	.
CC(C)CCNC(=O)C(=O)Nc1ccc2c(c1)N(S(=O)(=O)c1cccs1)CCC2	-2	-14	.	i	.	.	-13	28
CCC(=O)c1cn(CC(=O)Nc2c(C)cccc2C)c2ccccc12	3	-1	-2	i	24	3	-7	-10
CC(C)c1ccc(NC2CCCN(C(=O)c3ccc(N4CCOCC4)cc3)C2)cc1 (configuration not stated)	-1	-10	-6	i	17	-10	-5	-9
O=c1c2ccccc2nc2ccc(NCc3ccco3)nn12	-8	5	43	i	-6	76*	.	-6
CC(Sc1nnnn1C1CCCCC1)C(=O)O (configuration not stated)	-3	-2	-7	i	.	0	-21	-15
CCCCCN1CC(O)=C(c2nc3ccccc3[nH]2)C1=N	9	8	6	i	.	-3	1	-7

The results go on.
SMILES	MT1-MMP act inh	MT1-MMP act inh RFP	eIF4H inh	Rce1 inh	UUG fidelity	PABP FP inh	Env fusion inh	CSC inhib	others
O=C(NNC(=O)c1ccc(S(=O)(=O)N2CCOCC2)cc1)c1ccccc1	-1	2	0	i	-19	2	-9	-5
COc1ccc2c(c1)C(=O)N(Cc1ccccc1)C(=O)C2(C)C	-1	-3	-18	i	.	-5	2	10
CC(=O)Nc1ccc(C(=O)OCC(=O)/C(C#N)=C(\C)N)cc1	0	2	6	i	.	-4	-42	.
COc1cc(C(=O)OC2CCOC2=O)c([N+](=O)[O-])cc1OC (configuration not stated)	-3	3	1	i	-8	12	-1	-13
Cc1ccccc1C(=O)Nc1ccnc(-c2ccncc2)n1	1	4	-5	i	.	-4	-7	0
CSc1nc(-c2ccc(Cl)cc2Cl)[nH]c(=O)c1C#N	-2	3	1	i	-30	-2	-8	-23
